Screens: PubChem BioAssay, several laboratories
Calb FLC: affects C. albicans growth with fluconazole. AID 1979. actives 0.57% (n = 300,000). C. albicans CaCi-2 (fluconazole-resistant clinical isolate) + fluconazole, Alamar Blue growth, 48 h. growth inhibition, % (test concentration not listed);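 active means most replicates above 75%; inconclusive means exactly half above 75%; inactive means most below 75%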;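 further: all wells also contain fluconazole at 8 µg/ml as a sub-toxic cotreatment; 0% = median of DMSO wells and 100% = median of geldanamycin control wells; wells of about 8 µL received 7.5 nL stock; the first replicate is given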
A1 inh: inhibitors of the anti-apoptotic protein A1, read as caspase activation; MEF A1-2A-BIM cells, Caspase-Glo 3/7 luminescence, 3 h; percent of clofoctol response, vehicle zero; caspase activation, % (test concentration not listed); actives 0.066% (n = 330,000);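 active means over half of replicate activation scores above 10%, or exactly half above 10 with the replicate mean above 10; inconclusive means replicate mean below 10 yet half the replicates above 10; inactive means over half of replicates below 10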;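 further: wells of about 30 µL received 50 nL stock; many hits fall short of the cut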
T cruzi inh: T. cruzi replication inhibition. T. cruzi beta-gal in NIH3T3, luminescence, 90 h. inhibition, % (no concentration beside the values). actives 1.4% (n = 300,000). AID 1885;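 active means mean inhibition across valid replicates above about 55%, limit read from the data; inconclusive means mean below that limit but half or more replicates reach it; inactive means mean below it, under half of replicates reach it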;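 further: signal also drops with host cell toxicity which is not excluded here; 0% = plate median of DMSO wells and 100% = zero luminescence signal; higher percent means less beta-gal luminescence so fewer parasites; stock transfer was 50 nL into about 50 µL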
B2AR ag: human beta-2 adrenergic receptor agonism by FAP. response, % (test concentration not listed). actives 0.43% (n = 340,000). Am2.2-beta2AR cells, FAP receptor internalization, flow cytometry; reference of the scale not given here. P07550. AID 504454;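 active means response above a set limit, near 3 SD of response in nonfluorescent compounds, cut at about 42% in these data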;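 further: stock transfer was 100 nL into about 11 µL; a reference agonist was the positive control; negative values mostly stem from fluorescent compounds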
Target sequence (P07550 whole entry, looked up): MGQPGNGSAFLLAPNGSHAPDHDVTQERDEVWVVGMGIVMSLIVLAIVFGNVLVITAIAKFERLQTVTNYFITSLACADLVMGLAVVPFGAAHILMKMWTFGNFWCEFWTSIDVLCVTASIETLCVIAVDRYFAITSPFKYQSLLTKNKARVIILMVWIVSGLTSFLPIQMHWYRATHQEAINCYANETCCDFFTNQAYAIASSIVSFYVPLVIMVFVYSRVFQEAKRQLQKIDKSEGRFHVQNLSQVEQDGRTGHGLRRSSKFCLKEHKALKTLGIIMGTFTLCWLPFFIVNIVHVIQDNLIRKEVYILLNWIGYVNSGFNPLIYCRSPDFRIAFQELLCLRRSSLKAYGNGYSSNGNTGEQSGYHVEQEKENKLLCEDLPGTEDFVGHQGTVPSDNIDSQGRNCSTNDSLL
LANA-H2B inh: blocks KSHV LANA binding to histone H2A/H2B; cell-free LANA-H2A/H2B peptide, fluorescence polarization; Q9QR71; actives 0.6% (n = 320,000); inhibition, % (concentration not given with the values); AID 2629; in the data active means inhibition mostly above about 10%, no sharp cut-off; inactive means mostly below about 6.7%;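 further: stock transfer was 7.5 nL into about 10 µL; 0% = median of vehicle wells and 100% = median of positive control wells; one replicate is shown; the record names a cut of 25% in any replicate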
ALR inh: blocks human ALR sulfhydryl oxidase activity; purified ALR, DTT oxidation, H2O2 HRP-luminol luminescence; inhibition, % (no concentration beside the values); actives 3.8% (n = 290,000); AID 485317;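 active means mean and each replicate at 75% or more; inconclusive means only one of the two met; inactive means neither met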;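 further: stock transfer was 7.5 nL into about 7.5 µL; 0% = neutral wells and 100% = wells with inactivated enzyme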
Target sequence (P55789 whole entry, looked up): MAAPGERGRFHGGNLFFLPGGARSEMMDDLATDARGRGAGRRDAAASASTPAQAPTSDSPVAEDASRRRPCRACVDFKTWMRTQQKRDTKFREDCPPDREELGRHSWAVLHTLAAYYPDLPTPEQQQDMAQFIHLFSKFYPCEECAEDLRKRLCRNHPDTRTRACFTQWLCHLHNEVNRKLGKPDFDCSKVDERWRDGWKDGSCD
Ecoli rRNA inh: selective bacterial rRNA inhibition in E. coli; E. coli WT GFP vs humanized-ribosome RFP mutants, fluorescence, 24 h; active compounds read low; DMSO median 0, no signal -100; actives 1.6% (n = 350,000); GFP signal change (wild-type ribosome), % (test concentration not listed);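 active means significant combined selectivity score with lowered wild-type GFP, culture density cut under 30%, mutant RFP and density less affected; inactive means any of these conditions unmet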; further: one replicate is shown; some compounds called inactive have numbers as strong as hits
Beta apoptosis: beta cell apoptosis inhibition; INS-1E cytokine-induced death, ATP luminescence, 48 h; percent of positive-control rescue, neutral wells zero; protection from apoptosis, % (concentration not given with the values); actives 0.8% (n = 300,000); AID 435005;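 active means all replicates at 75% or more, or half of them and the mean; inconclusive means half reach 75% but not the mean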;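 further: 0% = cytokine-treated negative control wells and 100% = positive control rescue; higher means more ATP so stronger rescue from cytokine killing; wells of about 40 µL received 100 nL stock; the first replicate is given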
Ecoli rRNA inh OD600: also measured in Ecoli rRNA inh; calls as there; OD600 change, %; measured here: OD600 growth;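 optical density of the mix in the first replicate; 0 = DMSO median and -100 = no signal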
Ecoli rRNA inh RFP: recorded beside Ecoli rRNA inh, whose call it bears; RFP signal change, %; measured here: RFP humanized mutant strains;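 first replicate; 0 = DMSO median and -100 = no signal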
* hit, by the source's call; u = inconclusive; x = no result given.

Structure,Calb FLC,A1 inh,T cruzi inh,B2AR ag,LANA-H2B inh,ALR inh,Ecoli rRNA inh,Ecoli rRNA inh OD600,Ecoli rRNA inh RFP,Beta apoptosis
COc1ccc(CNC(=O)C(=O)NCC2OCCN2S(=O)(=O)c2ccc(OC)cc2)cc1 (stereo not drawn),0,0.8,13,1,-4.1,x,11,17,4.5,0
CN(C)C(=O)c1nnc(Cc2ccc(Cl)cc2)o1,2,0.7,0,-9,-1.3,-9,10,4,0.3,-7
CSc1ccccc1NC(=O)COc1ccccc1C,8,1.2,-13,-101,-1.1,-9,-36,-36,-2.7,-2
O=C(CNC(=O)c1ccc(-c2ccccc2)cc1)Nc1ccc(S(=O)(=O)Nc2ncccn2)cc1,-12,0.0,-10,14,-2.6,-4,7,0,-2.4,-5
C/C(CC(=O)Nc1ccc(N(C)C)cc1)=N\NC(=O)c1ccccc1O,-2,-0.1,-2,6,-5.9,22,-5,6,-1.2,x
O=C(NCCN1CCN(Cc2ccccc2)CC1)c1ccc(CS(=O)(=O)c2ccc(Br)cc2)o1,7,-1.1,32,-5,-1.4,-31,-1,-1,3.4,0
CCOC(=O)Cn1c(=O)n(Cc2ccco2)c(=O)c2ccc(C(=O)NCCc3ccccc3)cc21,-10,0.2,15,0,-1.1,4,x,x,x,x
COc1cc(/C=N/NC(=O)Cn2cnc3c2c(=O)n(C)c(=O)n3C)cc(OC)c1OC,-3,0.1,1,2,6.7,-2,7,11,1.9,-1
N#CCCN(C(=O)COC(=O)c1ccc(S(=O)(=O)N2CCOCC2)cc1)c1ccccc1,x,0.0,x,5,2.2,-14,11,20,0.4,-12
CC1CCCCN1CCCNc1ccc(C(CC(N)=O)NC(=O)Cc2ccc(Br)cc2)cc1[N+](=O)[O-] (stereo not drawn),1,0.2,8,7,2.1,1,11,14,2.8,15
COCCNC(=O)c1ccc2c(=O)n(Cc3ccco3)c(SCC(=O)NC3CCCC3)nc2c1,4,0.0,-1,3,3.6,58,x,x,x,-6
CCCNC(=O)Cn1cnc2sc(C(=O)N3CCN(Cc4ccc5c(c4)OCO5)CC3)c(C)c2c1=O,-24,1.2,9,3,3.7,-6,0,0,-1.2,-1
CCn1nnnc1SCC(=O)Nc1nc(C)c(C)s1,-8,0.1,-12,-4,-6.6,1,x,x,x,-7
C=CCN1C(=O)/C(=N/n2cnnc2)c2ccccc21,-20,0.5,-17,0,-1.4,29,x,x,x,-16
Cc1ccc(C)c(CN2CCC(CNC(=O)Nc3ccc(Cl)cc3)CC2)c1,3,0.4,36,17,4.2,33,-55,-78,-18,14
Cn1c(-c2ccc3nc(N)sc3c2)nc2cc(N)ccc21,4,-0.4,6,7,-0.7,99*,x,x,x,57
CCSc1nnc(-c2cccnc2)n1-c1ccc(C)c(Cl)c1,-3,-0.5,9,-2,2.4,1,-10,-21,-4.8,-1
COc1ncnc2c1oc1nc(CC(C)C)c3c(c12)CC(C)(C)OC3,-5,1.1,25,-19,-2.3,-2,x,x,x,2
CC(=O)Nc1cccc(C(=O)/C=C/c2ccc(F)cc2)c1,u,0.6,-30,54*,-8.1,10,-1,4,-0.3,4
Nc1nc(CSc2ccccc2)nc(N2CCCCC2)n1,-21,-1.2,-1,0,0.3,3,-36,-49,14,-4
CC1CCCC(NC(=O)CN2C(=O)NC(Cc3c[nH]c4ccccc34)C2=O)C1C (stereo not drawn),x,-0.2,x,2,-0.4,7,x,x,x,-1
NC(=O)NCc1ccc(C(=O)OCc2ccncc2)cc1,1,0.1,-10,2,-2.8,-27,5,-2,-11,-8
CCN(Cc1ccccc1)C(=O)CN1C(=O)c2ccccc2S1(=O)=O,-3,-0.5,-4,-4,-3.7,-3,2,5,0.0,-2
C/C(=C\C(=O)c1ccc(Cl)cc1)Nc1ccc(N2CCOCC2)cc1,0,-0.2,26,0,-5.9,x,x,x,x,3
C/C(=N\NC(=O)c1ccco1)c1ccc(NC(=O)c2cccs2)cc1,-10,-0.1,-2,-7,-0.2,13,x,x,x,10
CCOc1ccccc1NC(=O)CCNS(=O)(=O)c1ccccc1,2,0.5,2,-7,-1.2,-7,-1,-1,-4.5,-7
CCN(Cc1ccccc1)C(=O)c1cccnc1,3,-0.6,-15,3,1.1,0,20,13,2.5,2
Cc1cccc(OCCN2CSC(=S)N(C)C2)c1,-1,1.6,11,-1,0.6,x,x,x,x,1
CCCCn1nnnc1SCC(=O)NNC(=O)c1ccco1,5,0.8,-3,2,1.2,-1,12,6,3.4,x
Nc1ncnc2c1ncn2CCN1CCOCC1,12,1.3,3,-3,7.2,-1,x,x,x,-4

More entries.
Structure,Calb FLC,A1 inh,T cruzi inh,B2AR ag,LANA-H2B inh,ALR inh,Ecoli rRNA inh,Ecoli rRNA inh OD600,Ecoli rRNA inh RFP,Beta apoptosis
COc1ccc(NC(=O)CN(C)C(=O)c2c(C)nn(-c3ccccc3)c2Cl)cc1,3,0.2,3,-1,-3.6,-1,0,-1,0.7,2
CCCCNC(=O)Nc1ccccc1C(=O)NCCC,-1,0.0,-15,-4,3.6,0,x,x,x,-3
O=C(N/N=C/c1cccc(F)c1)c1ccc(Cl)cc1,3,0.4,-3,5,-6.9,4,14,13,0.6,2
Cc1[nH]c2ccccc2c1C(=O)CSCC(=O)O,2,0.5,15,-5,-3.6,98*,x,x,x,0
O=c1[nH]c(SCc2ccc(F)cc2Cl)nc2ccccc12,-1,-0.4,24,1,-6.9,-6,3,-1,-4.0,1
CC(Sc1nc2c(N)ncnc2n1CCOc1ccccc1)C(=O)O (stereo not drawn),-1,1.9,-14,-3,-3.7,0,6,2,3.8,-5
Cc1ccc(NC(=O)CNS(=O)(=O)c2cccs2)cc1F,4,0.6,13,7,-2.2,-3,x,x,x,2
Clc1ccc(CN2CCCCCC2)cc1Cl,-11,-0.1,18,-2,-2.9,1,2,5,-4.6,-2
CCN(CC)c1ccc(NC(=S)NC(=O)c2ccco2)cc1,-12,-0.7,5,3,2.0,x,x,x,x,2
Cc1nnc(NC(=O)C2CC(=O)N(c3ccc4c(c3)OCCO4)C2)s1 (stereo not drawn),x,u,x,1,21*,x,10,9,1.1,-7
Cc1ccc(CC(=O)N2CCN(c3ccccc3F)CC2)cc1,7,-0.1,-8,0,3.1,5,x,x,x,-8
COC(=O)C(Cc1ccccc1)NC(=O)CCc1c[nH]c2ccccc12 (stereo not drawn),0,0.2,-15,13,-5.7,2,5,2,5.4,-2
O=[N+]([O-])c1ccc(COc2ccccc2/C=N/O)cc1,-17,-1.3,-5,0,-1.1,-9,x,x,x,-10
NS(=O)(=O)c1ccc(N/C=C\C(=O)c2cccc3ccccc23)cc1,5,-0.5,-6,2,-1.3,-19,x,x,x,2
C/C(Cn1nc([N+](=O)[O-])cc1C)=N\NC(=O)c1cccc(Br)c1,-10,1.2,6,5,-0.8,-9,x,x,x,-1
Cc1cccc(C(=O)N[C@H](C(=O)Nc2nc(C)cs2)C(C)C)c1,-34,-3.0,8,-7,-10,-1,x,x,x,-7
Cn1cccc1Cc1nnc(SCC(=O)Nc2ccc(F)cc2F)n1-c1ccc(F)cc1,2,0.6,4,-2,-4.3,-7,2,6,3.5,-10
CCc1ccc(NC(=O)c2cnc3n(c2=O)CCS3)cc1,-1,-2.2,1,-12,-3.0,-21,6,1,1.4,x
c1ccc(Nc2nc3ccccc3[nH]2)nc1,-9,-6.7,11,13,0.8,16,x,x,x,x
CCn1c2ccccc2c2cc(CC(N)=O)ccc21,-10,-0.6,-14,1,-12,-6,0,-9,-2.3,-3
CC(C)C(=O)Nc1ccc2c(c1)nc1n2CCSC1,11,-0.1,-10,-15,-0.5,99*,x,x,x,x
CCOC(=O)C(C)Oc1cccc2c(=O)n(CC(=O)Nc3cccc(OC)c3)ccc12 (stereo not drawn),3,-0.7,7,13,4.7,-3,8,1,-3.9,-2
CC1Cn2c(nc(=O)c3c2NCN(CCc2ccccc2)C3)S1 (stereo not drawn),-3,-0.6,-1,-1,0.7,42,4,-6,3.2,-9
COc1cccc(/C=N/NC(=O)c2c(-c3ccccc3)noc2C)c1OC,4,0.0,-11,2,-2.8,-1,-20*,-6.9*,1.4*,3
COc1ccc(CN(C)C(=O)CNC(=O)c2cccs2)c(OC)c1,x,0.6,x,1,-3.9,x,0,2,-0.8,-1
Cc1ccc(OCCNC(=O)c2ccc(C)cc2)cc1,-5,-0.5,17,-2,-5.4,-6,-9,-7,-4.0,-3
COc1ccc(C(=O)COC(=O)c2nn(C)c(=O)c3ccccc23)c(OC)c1,0,-0.2,-4,-12,-1.5,-10,10,9,1.7,-9
O=C(COc1ccccc1Cl)Nc1cccc(S(=O)(=O)NC2=NCCCCC2)c1,-6,1.4,1,7,-8.2,-1,-14,-15,2.3,6
Cc1ccccc1N=CC1=C(O)c2ccccc2C1=O,-3,-10,-6,-10,-0.2,-144,13,10,4.0,5
O=C(NCc1ccc2c(c1)OCO2)c1cc(-c2ccccn2)nc2ccccc12,-22,-0.4,14,-4,2.8,2,3,-5,-2.4,-4

Following part
Structure,Calb FLC,A1 inh,T cruzi inh,B2AR ag,LANA-H2B inh,ALR inh,Ecoli rRNA inh,Ecoli rRNA inh OD600,Ecoli rRNA inh RFP,Beta apoptosis
CCOC(=O)c1sc2nc3c(SCC(=O)O)cc(C(=O)c4cc(F)ccc4O)cn3c(=O)c2c1C,5,-0.1,-3,7,22*,0,-14,-4,-7.8,-3
CCc1ccc(-c2cc(C)no2)cc1S(=O)(=O)N1CC(=O)Nc2ccccc21,-6,-0.4,-1,0,3.6,-32,-31,-57,-6.8,-2
Cc1ccc(C(=O)Nc2ccc(S(=O)(=O)Nc3ncccn3)cc2)cc1[N+](=O)[O-],9,1.0,-4,5,4.0,-16,3,6,-0.7,-3
NC1=NC(=O)/C(=C/c2cccs2)S1,-17,0.5,-7,-4,1.3,2,x,x,x,-4
C/C(=N\NC(=O)c1cccnc1)c1nnn(-c2nonc2N)c1C,7,0.8,-21,0,-0.2,-3,7,9,-3.2,-4
O=C(NCc1ccccc1)NC1(C(=O)N2CCN3CCCC3C2)CCCCC1 (stereo not drawn),1,0.6,-2,8,-2.3,0,x,x,x,-5
CCc1ccc(C(=O)NCc2cnn(C)c2)s1,-2,2.4,-3,0,x,x,4,6,0.3,0
Cc1ccc(S(=O)(=O)N2CCOCC2)cc1C(=O)N1CCOCC1,1,-0.4,-4,0,-2.5,-3,x,x,x,-4
CCOC(=O)C1CCCN(C2=NC(=O)/C(=C/c3ccc(OC)cc3OC)S2)C1 (stereo not drawn),10,-1.1,11,10,-3.8,13,-24,-40,-1.5,-4
CC(=O)C1=C(C)NC(=O)NC1c1cccc([N+](=O)[O-])c1O (stereo not drawn),-7,2.2,-6,6,0.6,-40,-4,4,-2.4,-3
Cc1ccccc1C(=O)Nc1nnc(-c2cccnc2)o1,2,0.6,-16,6,-2.6,x,-11,-12,-2.4,-4
CN(C)c1ccc(/C=N/NC(=O)C(=O)/C=C2\NC3(CCCC3)Cc3ccccc32)cc1,-8,-0.2,11,14,0.2,-1,x,x,x,20

Only part of the results is shown; count on the stated rates, not on these rows.
